Assay outcomes: PubChem, several laboratories
MT1-MMP act inh: MT1-MMP (human) activation inhibition; GFP/RFP ratio change, % at 20 µM; P50281; HT1080 RFP-PRO-GFP cells, GFP/RFP ratio fluorescence, overnight; percent of plate control window, DMSO zero; actives 0.061% (n = 360,000);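 active = GFP/RFP ratio change of at least 30% with cell ATP level not reduced by more than half and red fluorescence within 50% of control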; note: strong numbers were not always called active
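Material: RFP-PRO-GFP reporter HT1080 cells. Dosing: single-point 20 µM compound, 1% DMSO. Controls: DMSO and RFP-L50D-GFP cell wells. Timing: cells overnight before dosing, compound overnight, 37 °C, 5% CO2. Measure: GFP/RFP fluorescence ratio.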
Yeast UUG start: alters start codon recognition fidelity in yeast; actives 0.13% (n = 350,000); S. cerevisiae UUG-firefly luciferase reporter, luminescence/redox ratio; activity score, % at 18.7 µM; AID 602363;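 active = replicate mean at a twofold rise or more, about +100% in these data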;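 note: firefly luciferase made from a UUG start codon reports start codon fidelity; reporter light over untreated wells divided by growth signal over untreated wells; some hits fall short of that in this replicate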
CSC inhib: blocks cancer stem cells | cancer stem cell-like cells viability, luminescence | inhibition, % at 7.5 µM | actives 1.1% (n = 300,000) | AID 2717;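 active = mean at 75% or more and at least half the replicates too; tested in HMLE shEcad cells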;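 note: 0% = median of negative and 100% = median of positive control wells; the first replicate is given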
Rce1 inh: inhibitors of yeast Ras-converting enzyme; Q03530; yeast membranes, quenched prenylated peptide cleavage fluorescence; calls only; actives 0.27% (n = 290,000);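 active = fall in fluorescence gain of 50% or more versus controls, with final raw signal at or below 3038400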;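 note: plate controls were neutral control wells for no effect and wells lacking membranes for full effect; tested at 10 µM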
HIV Env fusion: HIV envelope-mediated fusion inhibition; inhibition, % at 12.3 µM; actives 1.1% (n = 360,000); HeLa-JRFL Env/CEM21 cell fusion, luciferase;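 active = mean replicate inhibition score of at least 50 and every replicate individually at or above 50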;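 note: 0% = plate neutral controls and 100% = maraviroc near 300 nM; one replicate is shown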
eIF4H FP inh: inhibitors of RNA binding by human eIF4H | Q15056 | eIF4H fluorescence polarization binding assay | inhibition, % at 35 µM | actives 0.94% (n = 290,000);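 active = 50% or more with normal probe brightness, or confirmed in later tests; about a fifth of its hits are not listed in these tables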;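 note: calls also rest on retests at 20 µM and on dose response follow-up; 0% = protein and probe with vehicle and 100% = probe without protein; strong numbers were not always called active; many hits fall short of the cut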
PABP FP inh: blocks human PABP binding to poly(A) RNA; P11940; fluorescence polarization; inhibition, % at 35 µM; actives 1% (n = 290,000); AID 2014;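 active = 50% or more with normal probe brightness, or confirmed in later tests; about a fifth of its hits are not listed in these tables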;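 note: calls also rest on retests at 20 µM and on dose response follow-up; controls were probe without protein and protein plus probe with vehicle; some compounds called inactive have numbers as strong as hits; many hits fall short of the cut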
Target sequence (P11940 whole entry, looked up): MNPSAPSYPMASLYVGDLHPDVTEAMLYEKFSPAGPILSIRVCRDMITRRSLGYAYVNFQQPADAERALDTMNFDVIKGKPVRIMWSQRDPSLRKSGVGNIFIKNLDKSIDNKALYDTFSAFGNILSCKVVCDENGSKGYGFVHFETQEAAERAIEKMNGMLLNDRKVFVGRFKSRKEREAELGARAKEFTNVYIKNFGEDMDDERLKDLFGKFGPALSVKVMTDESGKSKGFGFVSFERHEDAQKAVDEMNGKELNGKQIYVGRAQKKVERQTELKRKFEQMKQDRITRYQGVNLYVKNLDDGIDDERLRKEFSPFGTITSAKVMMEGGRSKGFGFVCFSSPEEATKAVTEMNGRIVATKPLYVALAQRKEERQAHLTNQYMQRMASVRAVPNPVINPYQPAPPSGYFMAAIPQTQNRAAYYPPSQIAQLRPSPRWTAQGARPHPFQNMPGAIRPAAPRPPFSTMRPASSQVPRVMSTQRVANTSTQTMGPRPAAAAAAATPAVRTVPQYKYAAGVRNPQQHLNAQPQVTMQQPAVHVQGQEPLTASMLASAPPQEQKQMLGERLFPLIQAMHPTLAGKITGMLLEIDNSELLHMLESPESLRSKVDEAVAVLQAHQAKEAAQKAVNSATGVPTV
eIF4H FP inh retest: recorded beside eIF4H FP inh, whose call it bears; inhibition, %; compound at 20 µM; confirmation average;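 mean of two retest wells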
PABP FP inh retest: second read-out of PABP FP inh, no call of its own (marks repeat the call); inhibition, %; compound at 20 µM; confirmation repeats;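 mean of two retest wells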
MT1-MMP act inh RFP: further read-out of MT1-MMP act inh, marked with its call; RFP signal change, %; measured here: RFP expression control read;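 0 = vehicle wells; hits needed this value within 50% of zero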
Starred values were filed as active, the others as inactive.

`CC(C)(C)NC(=O)CSc1nnc(Cc2ccccc2)n1CC1CCCO1` (stereo not drawn) gave MT1-MMP act inh 4, CSC inhib 7, Rce1 inh inactive, HIV Env fusion 3, eIF4H FP inh -1, PABP FP inh -15 and MT1-MMP act inh RFP -2.
Screening O=C(CSC(=S)N1CCOCC1)Nc1ccc(S(=O)(=O)Nc2ncccn2)cc1 returned MT1-MMP act inh -1, Yeast UUG start -8, CSC inhib -5, Rce1 inh inactive, HIV Env fusion -5, eIF4H FP inh 0, PABP FP inh 9 and MT1-MMP act inh RFP 0.
For CC(C)CNc1ncnc2c1ncn2[C@H]1CN(Cc2ccc(F)cc2)C[C@@H](CO)O1 the results were MT1-MMP act inh 7, Yeast UUG start -7, HIV Env fusion 21 and MT1-MMP act inh RFP 0.
Screening CCc1ccc(NC(=O)C(C)OC(=O)/C=C/c2cccc([N+](=O)[O-])c2)cc1 (stereo not drawn) returned MT1-MMP act inh 2, CSC inhib -29, Rce1 inh inactive, HIV Env fusion 31, eIF4H FP inh -3, PABP FP inh -3 and MT1-MMP act inh RFP 1.
`COc1ccc(CN2CCNC(=O)C2CC(=O)N2CCc3ccccc3C2)c(OC)c1` (stereo not drawn) gave MT1-MMP act inh 2, CSC inhib -9, Rce1 inh inactive, HIV Env fusion 12, eIF4H FP inh 4, PABP FP inh 7 and MT1-MMP act inh RFP 4.
For Cc1cc(NC(=O)CCC(=O)N(Cc2ccco2)C(C(=O)NC2CCCCC2)c2cccs2)no1 (stereo not drawn) the results were MT1-MMP act inh 0, CSC inhib 2, Rce1 inh inactive, HIV Env fusion 23, eIF4H FP inh 4, PABP FP inh 1 and MT1-MMP act inh RFP 3.
For S=C(NCc1ccc(Cl)cc1)NCc1ccco1 the results were MT1-MMP act inh -1, Yeast UUG start -24, CSC inhib -2, Rce1 inh inactive, HIV Env fusion 10, eIF4H FP inh 3, PABP FP inh -10 and MT1-MMP act inh RFP -1.
For Fc1cccc(Nc2nc3ccccc3n3cnnc23)c1 the results were MT1-MMP act inh 3, Yeast UUG start -16, CSC inhib -19, Rce1 inh inactive, HIV Env fusion -9, eIF4H FP inh -5, PABP FP inh -8 and MT1-MMP act inh RFP 7.
For CC(O/N=C\c1ccccc1O)C(=O)Nc1ccccc1C(=O)N1CCOCC1 (stereo not drawn) the results were MT1-MMP act inh -2, Rce1 inh inactive, HIV Env fusion 4, eIF4H FP inh 1, PABP FP inh 1 and MT1-MMP act inh RFP 0.
CC1CN(C(=O)c2ccc(COc3ccccc3Br)o2)CC(C)O1 (stereo not drawn) was read as MT1-MMP act inh 0, CSC inhib 0, Rce1 inh inactive, HIV Env fusion 14, eIF4H FP inh -9, PABP FP inh 8 and MT1-MMP act inh RFP 3.
For COc1ccc(S(=O)(=O)N2CCOCC2)cc1NC(=O)CSc1ccccc1 the results were MT1-MMP act inh -2, Yeast UUG start 6, CSC inhib 9, Rce1 inh inactive, HIV Env fusion 12, eIF4H FP inh 3, PABP FP inh -1 and MT1-MMP act inh RFP 1.
Screening COc1ccc(NC(=O)C2CCCN2S(=O)(=O)c2ccc(F)cc2)cc1 (stereo not drawn) returned MT1-MMP act inh 2, Yeast UUG start -8, CSC inhib -36, Rce1 inh inactive, HIV Env fusion 0, eIF4H FP inh -1, PABP FP inh -1 and MT1-MMP act inh RFP -1.
`c1cc2c3c(cccc3c1)C(N1CCOCC1)=N2` gave MT1-MMP act inh -1, Yeast UUG start -11, CSC inhib -15, Rce1 inh inactive, HIV Env fusion 2, eIF4H FP inh 58, PABP FP inh 47*, eIF4H FP inh retest 24, PABP FP inh retest 57* and MT1-MMP act inh RFP 2.
Screening CCN1c2ccccc2N(C)C1(C)c1ccccc1 (stereo not drawn) returned MT1-MMP act inh 2, Yeast UUG start -17, CSC inhib 43, eIF4H FP inh 84*, PABP FP inh 6.9*, eIF4H FP inh retest 98*, PABP FP inh retest 62* and MT1-MMP act inh RFP 5.
O=C(CSc1ccsc1[N+](=O)[O-])NCc1ccco1 was read as MT1-MMP act inh -2, CSC inhib 1, Rce1 inh inactive, HIV Env fusion 19, eIF4H FP inh 37, PABP FP inh -8 and MT1-MMP act inh RFP 2.
CN(C(=O)c1cccc(NC(=O)Cc2ccc(NC(=O)C3CCN(C(=O)C4CCCC4)CC3)cc2)c1)C1CCC1 was read as MT1-MMP act inh -2, Yeast UUG start 5, HIV Env fusion -17 and MT1-MMP act inh RFP 3.
For O=C(CSc1nnc(Nc2ccccc2)s1)NC1CCS(=O)(=O)C1 (stereo not drawn) the results were MT1-MMP act inh 2, CSC inhib 3, HIV Env fusion -10 and MT1-MMP act inh RFP 0.
CCOC(=O)C[C@H]1c2ccccc2S(=O)(=O)N1c1ccccc1 was read as MT1-MMP act inh 3, Yeast UUG start -10, CSC inhib 0, Rce1 inh inactive, HIV Env fusion -4 and MT1-MMP act inh RFP 1.
`COC(=O)c1cccc(C23CC4(C2)[C@H](CN(C)[C@@H]4c2ccccc2)C3c2ccccc2)c1` (stereo partly drawn) gave MT1-MMP act inh -1, Yeast UUG start -21, CSC inhib 27, Rce1 inh inactive, HIV Env fusion -8, eIF4H FP inh 6, PABP FP inh -3 and MT1-MMP act inh RFP -11.
O=C(CN(Cc1ccccc1)S(=O)(=O)c1ccccc1)N/N=C/c1ccccc1C(=O)O was read as MT1-MMP act inh 1, Yeast UUG start -12, CSC inhib -4, Rce1 inh inactive, HIV Env fusion -8, eIF4H FP inh -6, PABP FP inh -1 and MT1-MMP act inh RFP 3.
Screening Cc1sc(NC(=O)COc2ccccc2)c(C#N)c1-c1ccccc1 returned MT1-MMP act inh 4, Yeast UUG start -19, CSC inhib -5, Rce1 inh inactive, HIV Env fusion -108, eIF4H FP inh -6, PABP FP inh -2 and MT1-MMP act inh RFP -6.
CCOC(=O)N1CCC(NC(=O)Cn2cc3c(n2)CCC(C)C3)CC1 (stereo not drawn) was read as MT1-MMP act inh 8, Yeast UUG start 16, CSC inhib -18, Rce1 inh inactive, eIF4H FP inh 2, PABP FP inh -5 and MT1-MMP act inh RFP 10.
Screening COc1ccc(CC(=O)NC(=S)NNC(=O)COc2c(C)cccc2C)cc1 returned MT1-MMP act inh 5, Yeast UUG start -28, CSC inhib 2, Rce1 inh inactive, HIV Env fusion 12, eIF4H FP inh 0, PABP FP inh 5 and MT1-MMP act inh RFP 2.
`O=C1NN=C(c2ccc(Cl)cc2)CC1c1cccc(Cl)c1` (stereo not drawn) gave MT1-MMP act inh -6, Yeast UUG start 4, CSC inhib 0, Rce1 inh inactive, eIF4H FP inh -7, PABP FP inh -2 and MT1-MMP act inh RFP -4.
`Nc1nonc1C(=O)NCCNc1ccc([N+](=O)[O-])cn1` gave MT1-MMP act inh 3, CSC inhib 3, Rce1 inh inactive, HIV Env fusion -2, eIF4H FP inh 4, PABP FP inh 5 and MT1-MMP act inh RFP 1.
COc1ccc([C@H]2C=C3CN(C(=O)OC(C)(C)C)S(=O)(=O)[C@H]3C[C@H]2OC(=O)c2ccc(C(F)(F)F)cc2)cc1 was read as MT1-MMP act inh -2, Yeast UUG start -10, CSC inhib 0, Rce1 inh inactive, HIV Env fusion 12, eIF4H FP inh 7, PABP FP inh 4 and MT1-MMP act inh RFP -3.
O=c1cc(/C=C/c2c(F)cccc2Cl)[nH]c2ccccc12 was read as MT1-MMP act inh 1, Yeast UUG start -20, CSC inhib 16, Rce1 inh inactive, HIV Env fusion 3, eIF4H FP inh -3, PABP FP inh -5 and MT1-MMP act inh RFP -3.
`c1ccc2cc(C3OCC4(CCCC4)CO3)ccc2c1` gave MT1-MMP act inh -1, Yeast UUG start -11, HIV Env fusion -41 and MT1-MMP act inh RFP 1.
For CC(C)(C)c1ccc(C(=O)Nc2ccc(CN3CCS(=O)(=O)CC3)cc2)cc1 the results were MT1-MMP act inh 11, CSC inhib 6, Rce1 inh inactive, HIV Env fusion -2, eIF4H FP inh 1, PABP FP inh -5 and MT1-MMP act inh RFP -30.
COc1ccc(N(CC(=O)Nc2ccccc2SC)S(C)(=O)=O)cc1OC was read as MT1-MMP act inh -4, Yeast UUG start -17, CSC inhib -11, Rce1 inh inactive, HIV Env fusion 27, eIF4H FP inh -4, PABP FP inh 4 and MT1-MMP act inh RFP 0.
Screening CCCCn1c(=O)[nH]c(=O)c2c1nc(-c1ccccn1)n2CC returned MT1-MMP act inh 0, Yeast UUG start -19, CSC inhib -11, HIV Env fusion 6, eIF4H FP inh 27, PABP FP inh 38 and MT1-MMP act inh RFP 4.
CC(C)N(Cc1ccc(F)cc1)C(=O)c1cc2ccccc2oc1=O was read as MT1-MMP act inh 1, Yeast UUG start -21, CSC inhib -14, Rce1 inh inactive, HIV Env fusion -13, eIF4H FP inh 2, PABP FP inh -5 and MT1-MMP act inh RFP 1.
`COC(=O)c1ccccc1NC(=O)c1ccccc1SC` gave MT1-MMP act inh 4, Yeast UUG start -21, CSC inhib 7, Rce1 inh inactive, eIF4H FP inh 2, PABP FP inh 24 and MT1-MMP act inh RFP -1.
Nc1ccc(C#Cc2ccc3sc4ccccc4c(=O)c3c2)cc1 was read as MT1-MMP act inh 4, Yeast UUG start -12, CSC inhib 28, Rce1 inh inactive, HIV Env fusion -146 and MT1-MMP act inh RFP -1.
CCOC(=O)NC(NC(=S)Nc1ccc(OC)cc1)C(Cl)(Cl)Cl (stereo not drawn) was read as MT1-MMP act inh 8, HIV Env fusion 9, eIF4H FP inh -10, PABP FP inh -10 and MT1-MMP act inh RFP 7.
Screening COc1cccc(N2C(=O)CC(N3CCc4ccccc43)C2=O)c1 (stereo not drawn) returned MT1-MMP act inh 8, Yeast UUG start -10, CSC inhib -2, Rce1 inh inactive, HIV Env fusion -14, eIF4H FP inh -8, PABP FP inh -12 and MT1-MMP act inh RFP -3.
For O=C1NC(c2ccccc2)=NC1(NS(=O)(=O)c1ccc(Cl)cc1)C(F)(F)F (stereo not drawn) the results were MT1-MMP act inh -4, Yeast UUG start 4, CSC inhib -6, Rce1 inh inactive, HIV Env fusion 1, eIF4H FP inh 1, PABP FP inh -6 and MT1-MMP act inh RFP -2.

Among those listed so far, these have a Cl atom.
For S=C(NCc1ccc(Cl)cc1)NCc1ccco1 the results were MT1-MMP act inh -1, Yeast UUG start -24, CSC inhib -2, Rce1 inh inactive, HIV Env fusion 10, eIF4H FP inh 3, PABP FP inh -10 and MT1-MMP act inh RFP -1.
`O=C1NN=C(c2ccc(Cl)cc2)CC1c1cccc(Cl)c1` (stereo not drawn) gave MT1-MMP act inh -6, Yeast UUG start 4, CSC inhib 0, Rce1 inh inactive, eIF4H FP inh -7, PABP FP inh -2 and MT1-MMP act inh RFP -4.
O=c1cc(/C=C/c2c(F)cccc2Cl)[nH]c2ccccc12 was read as MT1-MMP act inh 1, Yeast UUG start -20, CSC inhib 16, Rce1 inh inactive, HIV Env fusion 3, eIF4H FP inh -3, PABP FP inh -5 and MT1-MMP act inh RFP -3.
CCOC(=O)NC(NC(=S)Nc1ccc(OC)cc1)C(Cl)(Cl)Cl (stereo not drawn) was read as MT1-MMP act inh 8, HIV Env fusion 9, eIF4H FP inh -10, PABP FP inh -10 and MT1-MMP act inh RFP 7.
For O=C1NC(c2ccccc2)=NC1(NS(=O)(=O)c1ccc(Cl)cc1)C(F)(F)F (stereo not drawn) the results were MT1-MMP act inh -4, Yeast UUG start 4, CSC inhib -6, Rce1 inh inactive, HIV Env fusion 1, eIF4H FP inh 1, PABP FP inh -6 and MT1-MMP act inh RFP -2.

Not a hit list, and some 3% of all compounds hit somewhere here.
